# High-throughput results from PubChem.
# FGF22 binding: binders of human FGF22 protein, primary screen, FGF22 synaptogenesis inhibitor project, biophysical, thermal shift, single point; recombinant FGF22 thermal shift, SYPRO orange fluorescence; percent of sucrose octasulfate shift, DMSO zero; Fibroblast growth factor 22 (Homo sapiens), Q9HCT0; actives 1.5% (n = 340,000); AID 651658, 2012; calls only at 9.99 µM;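 active means melting point raised past a set limit in the mean and every replicate; inconclusive means no clear call; three in four hits are not shown here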
# Calb FLC: C. albicans growth inhibition with fluconazole, primary screen, CaCi-2 strain, Alamar Blue fluorescence; AID 1979, 2009; actives 0.57% (n = 300,000); C. albicans CaCi-2 (fluconazole-resistant clinical isolate) + fluconazole, 48 h; growth inhibition, % (no concentration beside the values);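 active means most replicates above 75%; inconclusive means exactly half above 75%; inactive means most below 75%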;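 further: all wells also contain fluconazole at 8 µg/ml as a sub-toxic cotreatment; 0% = median of DMSO wells and 100% = median of geldanamycin control wells; wells of about 8 µL received 7.5 nL stock; the first replicate is given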
# ALR inh: inhibitors of human ALR sulfhydryl oxidase, primary screen, biochemical, H2O2 detection, HRP-luminol luminescence, single point. inhibition, % (no concentration beside the values). FAD-linked sulfhydryl oxidase ALR (Homo sapiens), P55789. AID 485317, 2010. actives 3.8% (n = 290,000). purified ALR, DTT oxidation;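 active means mean and each replicate at 75% or more; inconclusive means only one of the two met; inactive means neither met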;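 further: stock transfer was 7.5 nL into about 7.5 µL; 0% = neutral wells and 100% = wells with inactivated enzyme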
# Target sequence (P55789 whole entry, looked up): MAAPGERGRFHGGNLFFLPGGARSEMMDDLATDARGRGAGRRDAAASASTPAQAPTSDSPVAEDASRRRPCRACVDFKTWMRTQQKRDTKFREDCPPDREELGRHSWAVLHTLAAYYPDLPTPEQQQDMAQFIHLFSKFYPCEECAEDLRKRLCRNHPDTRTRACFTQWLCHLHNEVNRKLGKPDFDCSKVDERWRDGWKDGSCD
# RanGTP-Imp inh: inhibitors of RanGTP-importin-beta interaction, primary screen, biochemical, FRET, CFP-Ran, YFP-importin-beta, homogeneous; inhibition, % (test concentration not listed); AID 2216, 2009; cell-free CFP-Ran/YFP-importin-beta FRET ratio; actives 1.1% (n = 300,000); Ran GTPase (GTP-bound) - importin-beta complex;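 active means most replicates above 15%; inconclusive means exactly half above 15%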;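 further: 0% = DMSO wells and 100% = Ran loaded with GDP instead of GTP; wells of about 40 µL received 100 nL stock; the first replicate is given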
# rRNA inh HTS: reduced GFP signal of wild-type E. coli, primary screen, bacterial rRNA inhibitor project, GFP/RFP fluorescence, OD600, single point; GFP signal change (wild-type ribosome), % (concentration not given with the values); E. coli WT GFP vs humanized-ribosome RFP mutants, 24 h; active compounds read low; DMSO median 0, no signal -100; actives 1.6% (n = 350,000);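 active means significant combined selectivity score with lowered wild-type GFP, culture density cut under 30%, mutant RFP and density less affected; inactive means any of these conditions unmet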; further: one replicate is shown; some compounds called inactive have numbers as strong as hits
# Beta cell apopt: inhibitors of cytokine-induced beta cell apoptosis, primary screen, luminescence; INS-1E cytokine-induced death, ATP luminescence, 48 h; percent of positive-control rescue, neutral wells zero; protection from apoptosis, % (concentration not given with the values); actives 0.8% (n = 300,000); AID 435005, 2010;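 active means all replicates at 75% or more, or half of them and the mean; inconclusive means half reach 75% but not the mean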;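 further: 0% = cytokine-treated negative control wells and 100% = positive control rescue; higher means more ATP so stronger rescue from cytokine killing; wells of about 40 µL received 100 nL stock; the first replicate is given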
# T cruzi repl: inhibitors of intracellular T. cruzi growth, primary screen, luminescence, NIH3T3 host cells | inhibition, % (test concentration not listed) | AID 1885, 2009 | T. cruzi beta-gal in NIH3T3, 90 h | actives 1.4% (n = 300,000);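 active means mean inhibition across valid replicates above about 55%, limit read from the data; inconclusive means mean below that limit but half or more replicates reach it; inactive means mean below it, under half of replicates reach it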;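 further: signal also drops with host cell toxicity which is not excluded here; 0% = plate median of DMSO wells and 100% = zero luminescence signal; higher percent means less beta-gal luminescence so fewer parasites; stock transfer was 50 nL into about 50 µL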
# AF4-AF9 inh: inhibitors of AF4 peptide binding to AF9, primary screen, biochemical, AlphaScreen, biotin-AF4 peptide, FLAG-AF9, single point; Protein AF-9 (Homo sapiens), P42568; inhibition, % at 10 µM; actives 0.47% (n = 350,000);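 active means every replicate reaching a set inhibition limit, whatever the replicate mean, cut at about 25% in these data; inconclusive means mean inhibition reaches that limit but some replicates miss it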;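 further: 0% = plate neutral control median and 100% = total signal loss; the record names both 10 and 1 µM as test concentration; the first replicate is given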
# Target sequence (P42568 whole entry, looked up): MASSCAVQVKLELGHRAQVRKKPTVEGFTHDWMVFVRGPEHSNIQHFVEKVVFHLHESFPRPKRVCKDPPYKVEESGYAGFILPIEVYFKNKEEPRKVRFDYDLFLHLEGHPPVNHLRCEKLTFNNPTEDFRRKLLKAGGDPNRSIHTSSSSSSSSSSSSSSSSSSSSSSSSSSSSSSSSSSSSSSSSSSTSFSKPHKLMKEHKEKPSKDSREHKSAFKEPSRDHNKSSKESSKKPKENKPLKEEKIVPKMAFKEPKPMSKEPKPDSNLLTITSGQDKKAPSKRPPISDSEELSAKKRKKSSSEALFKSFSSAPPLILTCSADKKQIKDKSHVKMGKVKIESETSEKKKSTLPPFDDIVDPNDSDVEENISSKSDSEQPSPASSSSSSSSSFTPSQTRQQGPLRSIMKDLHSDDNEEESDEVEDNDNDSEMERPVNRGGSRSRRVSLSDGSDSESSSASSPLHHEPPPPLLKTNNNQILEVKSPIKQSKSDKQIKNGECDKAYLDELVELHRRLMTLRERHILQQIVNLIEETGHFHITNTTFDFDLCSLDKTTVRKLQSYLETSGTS
# rRNA inh HTS OD600: recorded beside rRNA inh HTS, whose call it bears; OD600 change, %; measured here: OD600 growth;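 optical density of the mix in the first replicate; 0 = DMSO median and -100 = no signal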
# rRNA inh HTS RFP: second read-out of rRNA inh HTS, no call of its own (marks repeat the call); RFP signal change, %; measured here: RFP humanized mutant strains;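 first replicate; 0 = DMSO median and -100 = no signal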
# * = called active by the depositor; i = inactive; ? = inconclusive; · = no result given. Some of the compounds tested; count on the stated rates, not on these rows.
# Screens in order: Beta cell apopt	rRNA inh HTS OD600	rRNA inh HTS	FGF22 binding	RanGTP-Imp inh	Calb FLC	AF4-AF9 inh	rRNA inh HTS RFP	ALR inh	T cruzi repl
1	Cc1ccccc1S(=O)(=O)Cc1ccc(C(=O)NCc2ccc(F)cc2)o1
→ -3	-1	-3	i	-5.2	8	-0.7	4.7	3	-4
2	Cc1cccc(NC(=O)CSc2nnc(C)c(C)n2)c1
→ -3	5	2	i	2.1	-3	-2.0	-2.5	-10	10
3	Cn1cc(CN2CCC(n3nccc3NC(=O)c3ccccc3Cl)CC2)cn1
→ -4	18	10	i	-8.7	2	0.8	-1.1	-1	36
4	O=C1NC[C@H](c2ccccc2)N(CCc2cccc(F)c2)C1=O
→ -7	7	10	i	0.3	12	2.3	-7.0	-19	-3
5	Cc1ccc(C)c(Oc2coc3cc(O)ccc3c2=O)c1
→ ·	-42	-29	i	-0.8	43	0.3	-11	-3	-22
6	CCC(C)(CC(=O)Nc1nccs1)c1ccccc1 (stereo not given)
→ 0	-3	-7	i	-2.3	5	-0.3	3.4	1	-4
7	CC(=O)c1cccc(NC(=O)c2cc(-c3ccco3)nc3ccccc23)c1
→ 12	3	-1	i	-3.8	-5	-1.2	1.5	·	1
8	Cc1cccnc1NC(=S)NC(=O)/C=C/c1ccccc1
→ -2	-2	-7	i	2.7	46	0.6	-1.9	-2	3
9	COc1ccc(C2C(C#N)C(C#N)N3CCCN23)cc1 (stereo not given)
→ -7	·	·	·	0.5	-7	·	·	8	4
10	NC1=NC(=O)/C(=C\c2ccc(-c3ccc(Cl)cc3)o2)S1
→ 12	-23	-3	i	7.2	3	-0.1	-17	-1	15
11	[N-]=[N+]=NC[C@H](Cc1ccccc1)N1CC[C@@H](NC(=O)OCc2ccccc2)CCC1=O
→ 1	1	-13	i	-4.9	-12	-3.4	-0.8	14	22
12	OC1CCCCC1Sc1nc2ccccc2s1 (stereo not given)
→ -5	·	·	·	1.5	-12	·	·	-20	3
13	Cc1ccc(NC(=O)CCNS(=O)(=O)c2cccc3nsnc23)cc1
→ 10	-15	-10	i	6.9	-9	9.9	-15	-6	-6
14	COc1ccc(-c2nc(N/N=C(\C)c3ccc(O)cc3)c3ccccc3n2)cc1
→ 50	10	16	i	-4.9	6	2.3	9.6	2	-13
15	COc1ccc(/C=N/Nc2nonc2N)cc1
→ 6	·	·	·	2.5	8	·	·	4	-27
16	Cn1cc(CNC(=O)/C=C/c2ccc(Cl)cc2)cn1
→ -4	-18	-12	i	0.5	-1	-4.1	-6.6	-4	9
17	Cc1ccc(SCC(=O)NCc2ccccc2)cc1
→ -5	-6	-6	i	-3.8	21	-2.4	-0.1	-23	-15
18	COc1ccccc1NS(=O)(=O)c1ccc(C)c(C(=O)NC2=NCCS2)c1
→ -3	0	-1	i	·	·	-1.3	0.5	28	·
19	CCCN(C(=O)c1ccc(S(=O)(=O)N2CCCC2)cc1)C1CCS(=O)(=O)C1 (stereo not given)
→ -4	·	·	i	·	·	-3.1	·	-4	·
20	CCN(CC(=O)Nc1cccc(S(=O)(=O)N(C)c2ccccc2)c1)Cc1ccccc1
→ 12	-40	-15	i	·	·	0.4	-4.0	-1	·

# Full records, looked up by structure:
# COc1ccc(/C=N/Nc2nonc2N)cc1 is listed as Beta cell apopt = 6; rRNA inh HTS OD600 = ·; rRNA inh HTS = ·; FGF22 binding = ·; RanGTP-Imp inh = 2.5; Calb FLC = 8; AF4-AF9 inh = ·; rRNA inh HTS RFP = ·; ALR inh = 4; T cruzi repl = -27
# O=C1NC[C@H](c2ccccc2)N(CCc2cccc(F)c2)C1=O is listed as Beta cell apopt = -7; rRNA inh HTS OD600 = 7; rRNA inh HTS = 10; FGF22 binding = i; RanGTP-Imp inh = 0.3; Calb FLC = 12; AF4-AF9 inh = 2.3; rRNA inh HTS RFP = -7.0; ALR inh = -19; T cruzi repl = -3

# Records 15–20, quoted:
# Screens in order: Beta cell apopt	rRNA inh HTS OD600	rRNA inh HTS	FGF22 binding	RanGTP-Imp inh	Calb FLC	AF4-AF9 inh	rRNA inh HTS RFP	ALR inh	T cruzi repl
15	COc1ccc(/C=N/Nc2nonc2N)cc1
→ 6	·	·	·	2.5	8	·	·	4	-27
16	Cn1cc(CNC(=O)/C=C/c2ccc(Cl)cc2)cn1
→ -4	-18	-12	i	0.5	-1	-4.1	-6.6	-4	9
17	Cc1ccc(SCC(=O)NCc2ccccc2)cc1
→ -5	-6	-6	i	-3.8	21	-2.4	-0.1	-23	-15
18	COc1ccccc1NS(=O)(=O)c1ccc(C)c(C(=O)NC2=NCCS2)c1
→ -3	0	-1	i	·	·	-1.3	0.5	28	·
19	CCCN(C(=O)c1ccc(S(=O)(=O)N2CCCC2)cc1)C1CCS(=O)(=O)C1 (stereo not given)
→ -4	·	·	i	·	·	-3.1	·	-4	·
20	CCN(CC(=O)Nc1cccc(S(=O)(=O)N(C)c2ccccc2)c1)Cc1ccccc1
→ 12	-40	-15	i	·	·	0.4	-4.0	-1	·

# Continued:
# Screens in order: Beta cell apopt	rRNA inh HTS OD600	rRNA inh HTS	FGF22 binding	RanGTP-Imp inh	Calb FLC	AF4-AF9 inh	rRNA inh HTS RFP	ALR inh	T cruzi repl
21	Cc1ccc(Oc2nnc(-c3ccccc3)cc2C#N)cc1
→ 6	·	·	·	-2.5	-4	·	·	·	7
22	CC(NC(=O)c1ccccc1Cl)C1COc2ccccc2O1 (stereo not given)
→ 3	·	·	·	-4.1	-1	·	·	-4	-1
23	Cn1c(O)c(N=NC(=S)Nc2ccccc2F)c2cc(S(=O)(=O)N3CCOCC3)ccc21
→ ·	10	5	i	7.6	-16	8.2	-0.2	·	-9
24	COc1ccc(C=NCCCN2CCOCC2)cc1
→ 2	·	·	·	-0.9	-2	·	·	-7	4
25	COc1ccccc1C(=O)Nc1cccc2c1CCCC2
→ ·	-3	6	i	0.1	?	-2.9	1.4	-4	7
26	COc1ccc(C2Nc3ccccc3C(=O)N2Cc2ccco2)cc1COc1ccccc1F (stereo not given)
→ -1	·	·	·	-1.0	-14	·	·	-3	32
27	Cc1cc(C)n(-c2nc3ccccc3nc2N2CCCC2)n1
→ -13	-9	-9	i	3.6	10	4.1	-0.8	-3	-25
28	NC(=O)c1ccc(Oc2ccc3c(c2)CCC3)c([N+](=O)[O-])c1
→ 1	-20	-13	i	6.6	1	-0.2	-1.5	4	-14

# Along the list, as entered above:
# Compounds 2–13 in Beta cell apopt, in turn: -3, -4, -7, ·, 0, 12, -2, -7, 12, 1, -5, 10
# Compounds 2–13 in rRNA inh HTS RFP, in turn: -2.5, -1.1, -7.0, -11, 3.4, 1.5, -1.9, ·, -17, -0.8, ·, -15
